Rce1 inh – yeast Ras-converting enzyme inhibition; 290,000 compounds, 0.27% hits; yeast membranes, quenched prenylated peptide cleavage fluorescence; calls only;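 active = fall in fluorescence gain of 50% or more versus controls, with final raw signal at or below 3038400; inconclusive = same 50% fall but final raw signal above 3038400; inactive = fall in fluorescence gain under 50%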;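 also: plate controls were neutral control wells for no effect and wells lacking membranes for full effect; tested at 10 µM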
Target sequence (Q03530 whole entry, looked up): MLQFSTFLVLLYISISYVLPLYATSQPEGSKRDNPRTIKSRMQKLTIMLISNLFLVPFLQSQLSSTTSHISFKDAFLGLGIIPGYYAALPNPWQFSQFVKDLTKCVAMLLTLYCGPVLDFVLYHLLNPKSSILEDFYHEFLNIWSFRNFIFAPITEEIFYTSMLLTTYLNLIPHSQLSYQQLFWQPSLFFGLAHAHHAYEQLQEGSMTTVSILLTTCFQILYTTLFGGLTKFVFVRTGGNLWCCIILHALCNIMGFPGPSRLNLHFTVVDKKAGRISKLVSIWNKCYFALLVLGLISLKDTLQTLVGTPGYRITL
eIF4H FP inh – inhibitors of RNA binding by human eIF4H; Q15056; eIF4H fluorescence polarization binding assay; inhibition, % at 35 µM; 290,000 compounds, 0.94% hits; AID 2012;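 active = 50% or more with normal probe brightness, or confirmed in later tests; inconclusive = above 50% with abnormal brightness, or retests that disagree; inactive = below 50% or failed in later tests; about a fifth of its hits are not listed in these tables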;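 also: calls also rest on retests at 20 µM and on dose response follow-up; 0% = protein and probe with vehicle and 100% = probe without protein; strong numbers were not always called active; many hits fall short of the cut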
UUG fidelity – modulators of start codon recognition fidelity in yeast. S. cerevisiae UUG-firefly luciferase reporter, luminescence/redox ratio. activity score, % at 18.7 µM. 350,000 compounds, 0.13% hits. AID 602363;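 active = replicate mean at a twofold rise or more, about +100% in these data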;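 also: firefly luciferase made from a UUG start codon reports start codon fidelity; reporter light over untreated wells divided by growth signal over untreated wells; some hits fall short of that in this replicate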
HIV Env fusion – blocks HIV Env-driven cell-cell fusion; HeLa-JRFL Env/CEM21 cell fusion, luciferase; inhibition, % at 12.3 µM; 360,000 compounds, 1.1% hits; AID 651610;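 active = mean replicate inhibition score of at least 50 and every replicate individually at or above 50; inconclusive = only one of the two criteria met; inactive = mean below 50 and not all replicates reaching 50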;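 also: 0% = plate neutral controls and 100% = maraviroc near 300 nM; one replicate is shown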
PABP FP inh – PABP-poly(A) binding inhibition. P11940. PABP-poly(A) RNA binding, fluorescence polarization. inhibition, % at 35 µM. 290,000 compounds, 1% hits. AID 2014;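 active = 50% or more with normal probe brightness, or confirmed in later tests; inconclusive = above 50% with abnormal brightness, or retests that disagree; inactive = below 50% or failed in later tests; about a fifth of its hits are not listed in these tables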;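 also: calls also rest on retests at 20 µM and on dose response follow-up; controls were probe without protein and protein plus probe with vehicle; some compounds called inactive have numbers as strong as hits; many hits fall short of the cut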
MT1-MMP act inh – MT1-MMP (human) activation inhibition | P50281 | HT1080 RFP-PRO-GFP cells, GFP/RFP ratio fluorescence, overnight; percent of plate control window, DMSO zero | GFP/RFP ratio change, % at 20 µM | 360,000 compounds, 0.061% hits;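 active = GFP/RFP ratio change of at least 30% with cell ATP level not reduced by more than half and red fluorescence within 50% of control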; also: strong numbers were not always called active
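Material – HT1080 RFP-PRO-GFP cells · Control set – DMSO wells and RFP-L50D-GFP cells · Incubation – overnight cell settling, then overnight compound exposure, 37 °C, 5% CO2 · Compound dosing – single-point 20 µM compound, 1% DMSO · Read-out – GFP/RFP fluorescence ratio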
CSC inhib – blocks cancer stem cells; cancer stem cell-like cells viability, luminescence; inhibition, % at 7.5 µM; 300,000 compounds, 1.1% hits;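 active = mean at 75% or more and at least half the replicates too; inconclusive = mean and replicates disagree; tested in HMLE shEcad cells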;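 also: 0% = median of negative and 100% = median of positive control wells; the first replicate is given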
eIF4H FP inh retest – recorded beside eIF4H FP inh, whose call it bears; inhibition, %; compound at 20 µM; confirmation average;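 mean of two retest wells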
PABP FP inh retest – also measured in PABP FP inh; calls as there; inhibition, %; compound at 20 µM; confirmation repeats;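 mean of two retest wells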
MT1-MMP act inh RFP – second read-out of MT1-MMP act inh, no call of its own (marks repeat the call); RFP signal change, %; measured here: RFP expression control read;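 0 = vehicle wells; hits needed this value within 50% of zero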
The depositor's hits bear a star; i = inactive; ? = inconclusive; · = not tested or not shown. An unsorted share of the library. About 3% of those tested had a hit in this group.

SMILES | Rce1 inh | eIF4H FP inh | UUG fidelity | HIV Env fusion | PABP FP inh | MT1-MMP act inh | MT1-MMP act inh RFP | CSC inhib | others
S=c1[nH]nc(-c2ccco2)n1/N=C/c1ccc(Cl)cc1 | i | 2 | -16 | 12 | 0 | 1 | 5 | 3
CCN(C(=O)CSc1nnc(Nc2ccccc2)s1)C1CCS(=O)(=O)C1 (stereo unspecified) | i | 3 | · | -15 | 2 | 1 | 2 | -10
O=C(Nc1ccccc1)N(C1=NCCC1)c1ccc(OC(F)F)cc1 | i | -10 | -22 | · | 1 | 8 | 8 | -10
CC(OC(=O)c1ccc2c(c1)NC(=O)CS2)C(=O)c1ccc(F)cc1 (stereo unspecified) | · | · | -2 | 59* | · | 0 | -2 | -4
COc1cccc(/C=N/NC(=O)CN(C2=NS(=O)(=O)c3ccccc32)c2ccccc2)c1 | i | -5 | · | 8 | 2 | 3 | 1 | 24
Cc1ccc(NC(=O)NCc2nc3ccccc3n2C)cc1 | i | 1 | -17 | 1 | 3 | 0 | 2 | -9
CCC(C)c1nc2c(c(N3CCC3=O)c1-c1ccccc1)CCCC2 (stereo unspecified) | i | · | -11 | 6 | · | 1 | -1 | ·
CC1=CC(=O)[C@H]2C(C)(C)CCC[C@]2(C)[C@@]1(O)CO | i | -6 | -19 | · | 14 | 5 | 0 | -11
Cc1cc(C)c2nc(-c3cccc(Cl)c3)c(C)c(C(=O)N3CCOCC3)c2c1 | i | -3 | 9 | -44 | -2 | · | · | ·
N/C(Cc1ccc([N+](=O)[O-])cc1)=N\OC(=O)Cc1ccccc1 | i | -1 | · | -4 | -8 | 0 | 1 | -8
COc1ccc(N2CC(C(=O)NCCc3ccc(Cl)cc3)CC2=O)cc1 (stereo unspecified) | i | -6 | -10 | -5 | -3 | -1 | -2 | 1
O=C(Nc1cccc2ccccc12)c1ccc2sc([C@@H]3O[C@H](CO)[C@@H](O)[C@H]3O)nc2c1 | · | · | -3 | -8 | · | -1 | 2 | ·
O=C(Nc1ccc2oc(-c3ccccc3)nc2c1)c1cc(-n2cnnc2)ccc1Cl | i | -7 | · | -12 | -11 | -7 | -6 | ·
COC(=O)C1=NN[C@H](C(=O)OC(C)(C)C)[C@H]1c1ccccc1 | i | 5 | · | 5 | 0 | 1 | 4 | -13
O=C(O)CC(C(=O)N(c1ccccc1)c1ccccc1)N1CCOCC1 (stereo unspecified) | i | 6 | -18 | · | 3 | -3 | 5 | 0
CC(=O)c1cccc(OCc2cc(C(=O)N(C)CCc3cnn(C)c3)no2)c1 | i | -2 | 2 | 1 | -4 | 0 | 0 | 0
COc1ccccc1CNC(=O)c1cnccn1 | i | 54 | -10 | -52 | 3.6* | 0 | -4 | -5 | eIF4H FP inh retest=15;PABP FP inh retest=124*
Clc1ss/c(=N\c2ccccn2)c1Cl | i | -4 | · | · | 8 | 1 | 7 | 8
FC(F)(F)c1cc(N2CCOCC2)nc(-c2ccccc2)n1 | i | -6 | -6 | 3 | -1 | 1 | 1 | 44
Cc1ccc2oc(-c3cccc(NC(=O)c4ccc(Br)o4)c3)nc2c1 | i | -4 | · | · | -2 | 4 | 3 | 8
CC(C)(O)C#Cc1ccc(CN2CCCC(CNC(=O)c3ccco3)C2)cc1 (stereo unspecified) | · | 7 | -12 | -150 | -3 | -1 | -7 | -3
Nc1ccc(O)c2c(=O)cc(-c3ccccc3Cl)oc12 | i | 82 | -16 | -144 | -4 | -4 | -5 | -5 | eIF4H FP inh retest=-7;PABP FP inh retest=14
NC(=S)N/N=C/c1coc2ccc(O)cc2c1=O | i | -4 | · | 9 | -6 | 3 | 0 | -3
Cc1cc(C)c(NC(=O)CN2CCN(c3ccccn3)CC2)c(C)c1 | i | -2 | -6 | 1 | -4 | 2 | 1 | -6
CSC1=NCCN1C(=O)Cc1cccs1 | i | 10 | -14 | -92 | 7 | -1 | 7 | -6
CC1CCC2(CC1)C(Nc1cccc(Cl)c1)=NC(=S)N2CC#N (stereo unspecified) | i | 11 | -21 | -88 | 2 | -49 | -39 | 61
Cc1ccc(C(=O)N/C(=C\c2cn(C)c3ccccc23)C(=O)NCCN2CCOCC2)cc1 | i | 4 | · | -4 | 1 | -8 | 0 | -6
COc1ccc(/C=N/N(Cc2ccccc2)c2ccccc2)cc1O | i | 4 | -29 | 9 | 22 | -4 | -5 | ?
CCOc1ccc(/C=N/NC(=O)C2CCCC2)c(OCC)c1 | i | -2 | -20 | 33 | -2 | 2 | 6 | -1
CCCN(CC(=O)Nc1ccccc1C)C(=O)c1ccc(-c2ccc(C(C)=O)cc2)o1 | i | · | -8 | · | · | 2 | -3 | -4
Cc1ccc(C(=O)NNC(=S)NC(=O)COc2ccccc2)cc1 | i | 19 | · | · | 11 | 5 | 1 | 6
COc1ccc(-c2c(C#N)c(N)nc3sc(C(=O)c4ccc(C)cc4)c(N)c23)cc1 | i | -16 | · | · | 1 | -1 | 5 | -9
O=C(c1cc2ccccc2o1)c1nc2c(n1O)CCCCC2 | i | -15 | -9 | -54 | -6 | -5 | 0 | ·
O=C(N/N=C/c1cccnc1)c1[nH]ncc1Br | i | 3 | -20 | -13 | -11 | -2 | 1 | -6
CCOC(=O)C1=CN(Cc2ccco2)S(=O)(=O)N(C)C1CC (stereo unspecified) | · | · | 10 | 6 | · | 2 | 4 | ·
O=C(Nc1ccn(CCCN2CCN(c3ncccn3)CC2)c(=O)n1)OCc1ccccc1 | · | · | -12 | 11 | · | 3 | 4 | ·
CCSc1nnc(NC(=O)c2cccnc2Cl)s1 | i | 6 | -14 | -10 | 3 | 4 | 9 | 7
CC(C)NC(=O)CSc1ncccc1-c1nc2ccccc2[nH]1 | i | 0 | -19 | -2 | -3 | -1 | -2 | -3
CCCc1c(C)[nH]c2ccc(C(=O)O)cc2c1=S | i | 56* | -15 | -6 | 55* | 3 | 7 | ·
COc1ccc(OC)c(CC(=O)Nc2cc(S(=O)(=O)N3CCCCC3)ccc2C)c1 | · | · | -16 | 28 | · | 5 | -7 | -5
Cc1nnc(SCCCN2C(=O)c3ccccc3C2=O)o1 | · | 0 | -8 | -53 | -2 | 3 | 2 | 14
COc1ccc(Cl)cc1NC(=O)CN(C)C(=O)c1cc2c(s1)CCC(C)C2 (stereo unspecified) | i | · | · | 12 | · | -2 | -4 | -14
COC(=O)Nc1cccn(Cc2c(Cl)cccc2Cl)c1=O | i | 8 | -5 | -35 | -3 | 6 | -5 | -8
COc1ccc(N2CCN(C(=O)c3ccc(COc4ccc5c(C)cc(=O)oc5c4)cc3)CC2)cc1 | i | -3 | · | -19 | 2 | -4 | -5 | ·
Cc1nc(NC(=O)CCN2C(=O)C3CC=CCC3C2=O)sc1C (stereo unspecified) | i | 0 | -17 | 2 | -3 | 4 | 4 | -4
CC1CCC(NC(=O)C2CCN(c3c4c(nc5ncnn35)CCC4)CC2)CC1 (stereo unspecified) | i | 6 | -13 | · | 1 | 0 | -21 | ·
CC1CCC2(CC1)NC(=O)N(CC(=O)NCCc1c[nH]c3ccccc13)C2=O (stereo unspecified) | · | · | 5 | 3 | · | 0 | 0 | 2
CCSc1nc2cc(S(=O)(=O)N3CCOCC3)ccc2o1 | · | · | -6 | -6 | · | -2 | 0 | -6

Reprinted from the part before: 2 compounds, followed by the next part.
SMILES | Rce1 inh | eIF4H FP inh | UUG fidelity | HIV Env fusion | PABP FP inh | MT1-MMP act inh | MT1-MMP act inh RFP | CSC inhib | others
CC1CCC2(CC1)NC(=O)N(CC(=O)NCCc1c[nH]c3ccccc13)C2=O (stereo unspecified) | · | · | 5 | 3 | · | 0 | 0 | 2
CCSc1nc2cc(S(=O)(=O)N3CCOCC3)ccc2o1 | · | · | -6 | -6 | · | -2 | 0 | -6
Cc1ccc(OCC(=O)Nc2ccc3c(c2)OC(F)(F)O3)c([N+](=O)[O-])n1 | i | 1 | · | · | -6 | 4 | -3 | 5
O=C(Nc1sc2c(c1C(=O)c1ccccc1)CCCC2)c1cccnc1 | i | 0 | · | -17 | 13 | -4 | -1 | -3
O=C(Nc1ccccc1F)Nc1cc(Cl)ccc1-n1cncn1 | i | -3 | -16 | 15 | -5 | -4 | -2 | -8
COc1ccc(Cc2nc3ccc(C(=O)N4CCC[C@H]4CO)cc3o2)cc1 | i | -6 | -12 | -13 | 5 | 5 | -3 | -4
Cc1cc(NC(=O)COc2ccc(C(C)(C)C)cc2)no1 | i | 2 | -1 | -9 | -4 | -1 | 0 | ·
CCCn1c(SCC(=O)N2CCN(S(=O)(=O)c3ccc(Cl)cc3)CC2)n[nH]c1=O | · | -2 | -9 | · | -3 | -1 | -1 | 0
O=C(c1ccco1)N1CCN(c2ncnc3c2[nH]c2ccccc23)CC1 | i | -1 | · | · | 7 | · | · | ·
Cc1ccc(/C=C(\NC(=O)c2ccc(C)cc2)c2nc(=S)[nH][nH]2)cc1 | i | -7 | -29 | · | -6 | 6 | -6 | -1
O=C(COc1ncnc2ccccc12)NC1CCS(=O)(=O)C1 (stereo unspecified) | i | -6 | -11 | · | -7 | 2 | 1 | 7
COc1cccc(N=CC=C2OC(C)(C)C(C)(C)O2)c1 | i | -4 | · | 16 | 2 | 2 | 4 | -1
CN(CC(=O)Nc1ccc(S(=O)(=O)N2CCCC2)cc1)CC(=O)Nc1ccc(F)c(F)c1F | i | -2 | · | -6 | -6 | -3 | -3 | 3
O=C1CCCc2nc(N3CCN(C(c4ccccc4)c4ccccc4)CC3)ncc21 | i | 1 | · | -49 | -7 | -7 | -6 | 14
O=c1cc(N2CCCCC2)c(-c2ccccc2)nn1Cc1ccc(Cl)cc1Cl | i | -5 | -12 | · | -5 | -2 | -10 | 83*
CCCN(CCC)CCNC(=O)CCC(=O)Nc1ccc2nc(N3CCN(C)CC3)cc(C)c2c1 | i | -3 | · | -2 | 6 | -6 | 1 | -10
CC(C)[C@H](NC(=O)c1ccccc1F)C(=O)OCC(=O)Nc1sccc1C(N)=O | · | · | 0 | · | · | 2 | -5 | 6
O=[N+]([O-])c1ccc(CN2CCN(c3ncccn3)CC2)cc1 | · | 11 | -2 | -12 | 2 | 4 | 0 | 6
N#C/C(=C\c1c(N2CCCCCC2)nc2ccccn2c1=O)C(N)=O | i | -7 | -4 | 3 | -2 | 0 | -1 | -6
Cc1cc(F)ccc1S(=O)(=O)N1CCCCC1CCNC(=O)C(=O)NCCN1CCOCC1 (stereo unspecified) | i | · | -12 | · | · | 9 | -2 | -14
CCCCn1c(N)c(N(CCOC)C(=O)CCNC(=O)c2ccc(Cl)cc2)c(=O)[nH]c1=O | i | · | -13 | 9 | · | -6 | 0 | -9
O=C(COC(=O)/C=C/c1ccccc1)NNC(=O)c1ccccc1F | · | · | -6 | 0 | · | 3 | 4 | ·
Cc1c(Cl)cccc1NC(=S)N1CCN(C(=O)c2ccco2)CC1 | i | 0 | -8 | · | 0 | 4 | 1 | 11
CCOc1ccc(OCCCC(=O)NCCOc2ccccc2OC)cc1 | i | -4 | -1 | ? | -1 | 1 | 0 | 1
CCCCn1c(=O)c(C(C)=O)c(O)c2ccccc21 | i | -7 | -22 | 12 | -2 | 2 | 6 | 15
Cc1ccc(NC(=O)CN2CCCC2)cc1 | i | -6 | -24 | 2 | 6 | -6 | 0 | ·
CCN(CC)S(=O)(=O)c1cc(C(=O)n2cccn2)c(Cl)cc1Cl | i | 2 | 1 | -17 | 1 | 1 | 1 | 4

Assay outcomes as filed in PubChem BioAssay.
